Compound activity deposited in PubChem by several laboratories.
WNV NS2B-NS3 inh = blocks West Nile virus NS2B-NS3 protease activity; z-score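 (tested at a level between 10 and 100 µM)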; AID 577; WNV NS2B-NS3 protease, fluorogenic substrate Ex360/Em465; stronger effect = lower value; P06935; hit rate 0.18% among 65,000;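 active = z-score at -3 or under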;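 also: score is relative to mean and spread of the compound wells of a plate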
Target sequence (P06935 1371-1501 limits assumed): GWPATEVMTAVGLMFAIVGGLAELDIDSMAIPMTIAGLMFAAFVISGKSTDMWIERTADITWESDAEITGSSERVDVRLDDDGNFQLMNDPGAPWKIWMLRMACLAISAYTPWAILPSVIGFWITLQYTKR
Target sequence (P06935 1502-1679 limits assumed): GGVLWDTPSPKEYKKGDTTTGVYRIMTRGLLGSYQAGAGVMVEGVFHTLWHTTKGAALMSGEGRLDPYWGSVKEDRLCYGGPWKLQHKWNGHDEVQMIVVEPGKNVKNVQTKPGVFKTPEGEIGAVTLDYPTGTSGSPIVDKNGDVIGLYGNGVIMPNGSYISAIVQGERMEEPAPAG
MT1-MMP promoter = inhibitors of MT1-MMP promoter transcription, cell-based, luciferase reporter, luminescence (AID 618) | calls from a first round at 10 µM; hits with a dose series show EC50 in µM | MT1-MMP promoter luciferase reporter cells, luminescence | hit rate 0.62% among 87,000;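 active = over half of the reporter light lost at 10 µM or EC50 under 50 µM; inactive = the rest and hits that failed the dose series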;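 also: actives suppress MT1-MMP promoter-driven transcription so potencies describe inhibitors; HT1080 fibrosarcoma cells; overnight exposure; toxic or luciferase-blocking compounds were not removed from the actives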
Hsc70 = Hsc70 inhibitors, probe displacement, primary screen, biochemical, fluorescence polarization (AID 568); Hsc70 fluorescence polarization, probe displacement; higher % means a stronger effect; strong numbers were not always called active; displacement, % at 20 µM; hits with a dose series show IC50 in µM; 83,000 tested, under 10 active;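 active = displacement above 50% without optical interference and an IC50 on retest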;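 also: ATPase domain with a fluorescein-tagged ATP probe; 0% = vehicle and 100% = excess ADP; read after one hour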
An asterisk follows results filed as active; i = inactive; x = no result given. This is a subset; rates above refer to the full screens.

Each structure is followed by: Hsc70, WNV NS2B-NS3 inh, MT1-MMP promoter
CC(=O)C1=C(O)C(=O)N(Cc2ccccc2)C1c1cccs1 (stereo not given)
    -4.1%, -0.24, i
Cc1cc(C)nc(NC(=O)CSc2nc3ccccc3s2)n1
    -4.2%, x, i
CCOC(=O)C1=C(c2ccccc2)N=C2SCC(=O)N2C1c1ccc(OC)c(OC)c1 (stereo not given)
    -1.6%, x, i
O=C1[C@@H]2[C@H](C(=O)N1O)[C@H]1C=C[C@@H]2C1
    -1.9%, -0.95, i
Cc1ccc(OC(=O)CCC(=O)OCCCC(F)(F)C(F)(F)F)cc1
    -0.6%, -0.46, i
CCOc1ccc(OCC)c(NC(=O)CSc2nc3c(c(=O)n(C)c(=O)n3C)n2CC)c1
    -0.9%, 0.59, i
COc1ccc(CCNC(=O)CCS(=O)(=O)c2cccc3nsnc23)cc1OC
    -9.5%, 1.2, i
COc1ccc(N2CCN(c3nc4c(c(=O)[nH]c(=O)n4C)n3Cc3cccc(C)c3)CC2)cc1
    -3.6%, 0.8, i
Cc1ccc2c(c1)N(CCC(=O)NCC1CCCO1)C(=O)CO2 (stereo not given)
    0.9%, -0.79, i
COc1cccc(NC(C)C(=O)N2CC(C)OC(C)C2)c1 (stereo not given)
    -4.0%, 0.06, i
O=C(NCc1ccccc1)c1ccc(/C=N/O)nc1
    7.2%, -0.32, i
CCOC(=O)c1c(NC(=O)c2noc3c2CCCC3)sc2c1CCCC2
    -14%, -0.44, i
CC(C)(CNc1ccc([N+](=O)[O-])cc1Cl)CNS(C)(=O)=O
    -1.8%, x, i
CC(=O)N1CCc2cc(Br)cc(S(=O)(=O)NCCCN3CCCC(C)C3)c21 (stereo not given)
    5.6%, -0.46, i
c1ccc(Cc2nn3c(-c4ccncc4)nnc3s2)cc1
    4.9%, -0.11, i
CC(C)Nc1nc(-c2ccccc2)nc(-n2ccnc2)n1
    -4.3%, -0.05, i
O=C(c1ccc(S(=O)(=O)N2CCOCC2)cc1)N(Cc1ccco1)Cc1cccs1
    11%, 0.07, i
CCN(CC)CCn1c2ccc(Cl)cc2c2nc(C)sc21
    -3.6%, x, i
CC(C)Oc1ccc(S(=O)(=O)N(C(C)C)C(C)C)cn1
    -1.8%, x, i
O=S(=O)(Cc1ccccc1)N1CCc2ccccc21
    -199%, -0.59, i
CN(C1CCCCC1)S(=O)(=O)c1ccc(S(=O)(=O)N2CCN(CCC#N)CC2)cc1
    -1.9%, -0.65, i
CCC(=O)OC1(C#CCOc2ccc(OC)cc2)CCN(C)CC1
    -1.1%, -0.58, i
Cc1ccc(NC(=O)CC(=O)NCCN2CCOCC2)cc1
    -3.6%, 0.8, i
COCCNC(=O)CCn1nc(-c2ccc(Cl)cc2)ccc1=O
    -5.8%, 0.47, i
C=CCn1c(CNC(=O)c2cccs2)nnc1SCC(=O)Nc1ccc(C(=O)O)cc1
    0.1%, x, i
Cc1onc(-c2c(F)cccc2Cl)c1C(=O)Nc1sc2c(c1C(N)=O)CCC2
    -3.2%, x, i
CCC(C)c1ccc(NC(=O)C2CC2)cc1 (stereo not given)
    -2.8%, -0.78, i
COc1ccc(N(C)S(=O)(=O)c2c(C)[nH]c(=O)[nH]c2=O)c(OC)c1
    1.8%, -0.79, i
O=C(NNC(=O)c1cnccn1)c1cccc([N+](=O)[O-])c1
    0.1%, x, i
CCc1ccc(NC(=O)CS(=O)CC(=O)Nc2ccc(F)cc2F)cc1 (stereo not given)
    1.3%, 1.4, i
O=C(Nc1ccc(F)cc1)c1ccc(S(=O)(=O)NCC2CCCO2)cc1 (stereo not given)
    0.0%, -0.01, i
COc1ccc(CCNC(=O)CN(C2CCCCC2)S(C)(=O)=O)cc1
    3.4%, -0.22, i
CCCOc1ccc(C(=O)N2CCCC2)cc1OC
    1.1%, 0.27, i
O=C(Cn1nnc(-c2ccc(CN3CCOCC3)cc2)n1)NC1CCCCC1
    -3.6%, -0.39, i
Cc1c(C(=O)OC(C)C)[nH]c2c1C(=O)CC(C)(C)C2
    -7.1%, 0.68, i
CCOc1cc(C(C#N)N2CCCCC2)ccc1OC (stereo not given)
    3.7%, x, i
CCOC(=O)N1CCN(c2nc(SC)nc3sc4c(c23)CC(C)(C)OC4)CC1
    -6.6%, 1.7, i
Nc1ccc2ncccc2c1
    3.0%, -0.61, i
O=C(O)CCC(=O)N1CCc2cc(S(=O)(=O)N3CCCCC3)ccc21
    2.1%, -0.33, i
COC(=O)c1ccc(Cn2cnc3c(cnn3-c3ccc(F)cc3)c2=O)o1
    -7.0%, -0.41, i
COc1ccc(OCC(=O)N2CCN(C(=O)c3cccs3)CC2)cc1
    -1.0%, 0.41, i
N#Cc1ccc(Cn2c(=O)c(C#N)c3n(c2=O)CCC3)cc1
    -4.5%, -0.29, i
CC1CCN(C(=O)c2ccccc2NC(=O)c2cccc(S(=O)(=O)N3CCOCC3)c2)CC1
    8.5%, -0.98, i
CCN1C(=O)C2(C(C#N)=C(N)Oc3c2c(C)nn3-c2ccccc2)c2ccccc21 (stereo not given)
    1.1%, -1.3, i
COC(=O)C(NC(C)=O)(Nc1nc(C)cs1)C(F)(F)F (stereo not given)
    6.4%, x, i
CSc1nc2c(c(=O)[nH]1)CCCC2
    -3.2%, x, i
CCCCSc1nc2c(cnn2-c2ccc(F)cc2)c(=O)[nH]1
    2.6%, -0.45, i
O=C(Nc1ccc2nc(-c3ccccc3)[nH]c2c1)c1ccco1
    -2.4%, x, i
CN(C)c1ccnc(-n2cccc2/C=N/OCc2ccccc2)c1C#N
    -1.3%, x, i
CCOC(=O)/C=C1\SCC(=O)N1CC(=O)Nc1ccc2c(c1)CCC2
    -13%, -0.3, i
CCN(CC)CCNC(=O)C1CCC(=O)N1CCc1ccccc1 (stereo not given)
    1.0%, -0.87, i
Cc1ccc(C(=O)OC2CCOC2=O)cc1NC(=O)c1ccco1 (stereo not given)
    -5.0%, -1.7, i
Cc1cc(Nc2ccccc2)n(-c2nc3ccccc3[nH]2)n1
    3.5%, 2.1, i
CN1CCN(C(=O)CN(c2cc(C(F)(F)F)ccc2Cl)S(C)(=O)=O)CC1
    0.0%, x, i
CC(=O)CSc1nnc(-c2ccc3c(c2)OCO3)o1
    -1.1%, x, i
CN(C)c1ccc(CN(C(=O)COc2ccccc2)C2CCS(=O)(=O)C2)cc1 (stereo not given)
    -6.6%, 0.81, i
CC(C)CCn1c(Cl)nc2c1c(=O)n(C)c(=O)n2C
    1.3%, -0.85, i
O=C(Nc1ccccc1C(F)(F)F)N1CCN(c2ccc3nnc(-c4ccc(F)cc4)n3n2)CC1
    -12%, 1.8, i
CC(OC(=O)c1ccc2ccccc2n1)C(=O)Nc1ccc(N2CCOCC2)cc1 (stereo not given)
    0.6%, 0.32, i
CCOC(=O)N1CCC(NC(=O)c2cc(C(=O)Nc3ccc(OC)c(OC)c3)ccc2CO)CC1
    -6.6%, 1, i

One compound at a time, from the list above. Order of values: Hsc70 | WNV NS2B-NS3 inh | MT1-MMP promoter
CCOC(=O)N1CCC(NC(=O)c2cc(C(=O)Nc3ccc(OC)c(OC)c3)ccc2CO)CC1 in the list: -6.6% | 1 | i
CCOC(=O)/C=C1\SCC(=O)N1CC(=O)Nc1ccc2c(c1)CCC2 in the list: -13% | -0.3 | i
CN1CCN(C(=O)CN(c2cc(C(F)(F)F)ccc2Cl)S(C)(=O)=O)CC1 in the list: 0.0% | x | i
Cc1ccc(C(=O)OC2CCOC2=O)cc1NC(=O)c1ccco1 (stereo not given) in the list: -5.0% | -1.7 | i
CCCCSc1nc2c(cnn2-c2ccc(F)cc2)c(=O)[nH]1 in the list: 2.6% | -0.45 | i

The main list resumes with the 2 entries that preceded the break.
Each structure is followed by: Hsc70, WNV NS2B-NS3 inh, MT1-MMP promoter
CC(OC(=O)c1ccc2ccccc2n1)C(=O)Nc1ccc(N2CCOCC2)cc1 (stereo not given)
    0.6%, 0.32, i
CCOC(=O)N1CCC(NC(=O)c2cc(C(=O)Nc3ccc(OC)c(OC)c3)ccc2CO)CC1
    -6.6%, 1, i
Cc1ccc(C2C3=C(CCCC3=O)Nc3nc(SCC(=O)NCc4ccco4)[nH]c(=O)c32)cc1 (stereo not given)
    -2.8%, -0.45, i
O=C(Nc1ccccc1C(=O)N1CCOCC1)C1CCC(=O)N1C1CCCC1 (stereo not given)
    -7.5%, 0.23, i
OC(COCC1COc2ccccc2O1)CN1CCN(c2ccccn2)CC1 (stereo not given)
    -0.7%, -0.13, i
CCOC(=O)C1=C(N)n2c(s/c(=C\c3cccnc3)c2=O)=C(C(=O)OC)C1c1cccnc1 (stereo not given)
    -3.8%, -1.1, i
Cc1cc(=O)oc2c1c(C)nn2-c1ccc(C(=O)OC(C)C)cc1
    -4.8%, -0.01, i
O=C(NCCc1ccc(Cl)cc1)C1CCN(S(=O)(=O)N2CCCC2)CC1
    -1.2%, 0.14, i
CSc1sc(C)cc1C1C(C#N)=C(N)N(c2cccnc2)C2=C1C(=O)CCC2 (stereo not given)
    -3.4%, 0.7, i
Cc1ccc(S(=O)(=O)N2CCN(Cc3nc4ccccc4[nH]3)CC2)cc1C
    1.4%, x, i
COC(=O)Nc1ccc2c(c1)N(C(=O)CCN1CCN3CCCC3C1)c1ccccc1S2 (stereo not given)
    -0.8%, -0.16, i
COCC(C)NC(=O)c1ccc(Cl)c(Cl)c1 (stereo not given)
    1.8%, 0.01, i
Cc1ccc(S(=O)(=O)NCCNC(=O)CN2CCCC2)cc1
    -4.0%, 0.51, i
O=C(CC12CC3CC(C1)CC(CC(=O)NC1=NCCS1)(C3)C2)NC1=NCCS1
    -7.5%, -1.6, i
Cc1cccc(NC(=S)NN2CCOCC2)c1C
    -0.2%, x, i
Cc1ccc(C2C3CN(C(C)C)CC=C3C(C#N)=C(N)C2(C#N)C#N)cc1 (stereo not given)
    57%, 1, i
COc1ccc2c(c1)OC(O)(C(F)F)CC2=O (stereo not given)
    -0.9%, 0.19, i
Cc1ccc(-n2nnc3c(=O)n(CC(=O)NCc4ccco4)cnc32)cc1
    -1.8%, -1.1, i
CCCN1C2CCCC1CC(NC(=S)Nc1cc(C)ccc1C)C2 (stereo not given)
    -3.0%, x, i
O=S(=O)(NCc1cccnc1)c1ccc(Cl)s1
    -2.2%, x, i
COc1ccc(C(=O)Nc2cccc(C(C)=O)c2)c(OC)c1OC
    -5.2%, x, i
Cc1c(C(=O)O)sc2nc3n(c(=O)c12)CCCCC3
    0.7%, x, i
Cc1cc(-c2ccccc2)nc2cc(C(=O)N(Cc3ccccc3)Cc3ccccc3)nn12
    -4.7%, x, i
CCCNC(=O)Cn1cnc2sc(C(=O)N3CCCC(C(=O)OCC)C3)c(C)c2c1=O (stereo not given)
    1.6%, 0.2, i
Brc1ccc(-c2nn3c(Cc4ccccc4)nnc3s2)o1
    2.9%, 0.88, i
Nc1nnc(SCC(=O)NCCOc2ccccc2)s1
    -0.2%, x, i
Cc1ccc(-n2ncc(C#N)c2/N=C/N2CCCCCC2)cc1
    -1.0%, -0.42, i
Cc1noc(C)c1COc1ccc(C(=O)OC(C)C(=O)Nc2ccc(N3CCOCC3)cc2)cc1 (stereo not given)
    4.6%, 1.3, i
COc1cc(-c2nc(-c3cccc(C(F)(F)F)c3)no2)cc(OC)c1OC
    4.1%, -0.83, i
N#Cc1ccccc1NC(=O)c1ccccc1OCC(=O)NCc1ccco1
    -0.5%, -0.07, i
CCNC(=O)c1c(C)nc2ccccn12
    -2.0%, 0.81, i
CC(=O)Oc1c(S(=O)(=O)c2ccccc2)c(C)nn1C(C)(C)C
    -3.6%, 0.16, i
CC(C)(C)n1ncc2c(=O)n(CC(=O)Nc3ccc4c(c3)OCO4)cnc21
    4.7%, -0.55, i
Cc1ccc2oc(NC(=O)N3CCOCC3)cc(=O)c2c1
    -1.0%, 2.7, i
CCN(CC)CCCNc1cc2n(c(=O)n1)CCc1cc(OC)c(OC)cc1-2
    -2.7%, -0.18, i
CCOC(=O)c1c(NC(=O)c2ccc(Br)o2)sc2c1CCCC2
    -5.3%, -0.69, i
O=C(CN1C(=O)C2CC=CCC2C1=O)Nc1nnc(SCc2ccc(F)cc2)s1 (stereo not given)
    -1.5%, x, i
O=C(NC(Nc1ncccn1)C(=O)c1ccccc1)c1ccccc1 (stereo not given)
    -8.5%, -0.19, i
Cc1ccc(C)c(OCCCC(C)(C)C(=O)O)c1
    -0.9%, -0.16, i
Cc1[nH]n(CCC#N)c(=O)c1CC(=O)N1CCN(c2ccccc2)CC1
    -6.2%, -1.5, i
O=C(NCCc1csc(-c2cccnc2)n1)c1cccs1
    0.2%, 1.1, i
CCC(=O)Nc1ccc(C(=O)CSc2nnc(-c3cccnc3)o2)cc1
    -8.4%, -0.59, i
